# Cruzain noTriton – qHTS Assay for Promiscuous and Specific Inhibitors of Cruzain (without detergent); AID 1476, 2009; actives 2.3% (n = 200,000); Cruzipain (Trypanosoma cruzi), P25779; Potency, µM, for the others: max response, negative = inhibition, actives largely listed as inhibitors; purified cruzain, Z-FR-AMC fluorescence, no detergent; active = well fitted curve in the direction sought with a large enough effect; inconclusive = small, poorly fitted or top-dose-only effect, or another doubt; inactive = no such curve, though single readings can be large; an effect the other way counts as inactive or inconclusive;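 also: plate controls were enzyme without inhibitor for no effect and buffer without enzyme for full effect; nearly all actives have a fitted effect of over 40% in size; top concentration of the series not given in the record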
# Target sequence (P25779 123-467 limits assumed): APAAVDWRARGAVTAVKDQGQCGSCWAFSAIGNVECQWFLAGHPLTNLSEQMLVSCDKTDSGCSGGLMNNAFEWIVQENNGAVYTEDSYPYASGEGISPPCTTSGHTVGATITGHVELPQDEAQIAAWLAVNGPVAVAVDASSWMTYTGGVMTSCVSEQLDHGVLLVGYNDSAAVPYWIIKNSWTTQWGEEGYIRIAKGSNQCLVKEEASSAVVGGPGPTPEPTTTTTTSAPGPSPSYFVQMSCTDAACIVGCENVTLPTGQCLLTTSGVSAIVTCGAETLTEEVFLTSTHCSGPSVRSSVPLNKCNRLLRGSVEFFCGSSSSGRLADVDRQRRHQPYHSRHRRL
#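 Purified cruzain at 1.5 nM, pre-incubated 15 min with compound at room temperature in 100 mM sodium acetate pH 5.5, 5 mM DTT, 0.00005% Triton X-100. Reaction started with 2 uM Z-FR-AMC; AMC fluorescence increase over 60 s gives rate.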
# RE007 growth inh – qHTS Assay for Inhibitors of the HIV-1 protein Vpr. S. pombe RE007 Vpr strain, BacTiter-Glo ATP luminescence, 24 h; control for the full effect not named in the record. Potency, µM (series often up to 92.2 µM), for the others: top-dose activity change, negative = less growth. actives 0.21% (n = 360,000). AID 651644, 2012; active = well fitted falling curve with a large enough effect; inconclusive = small, poorly fitted or top-dose-only effect; inactive = no such curve, though single readings can be large or run the other way;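 also: % is scaled to controls: 0 for no effect and ±100 for the full control effect; nearly all actives have a fitted effect of over 50% in size; the assay follows cell death caused by Vpr and the record does not say whether a fall means rescue or toxicity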
#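 Fission yeast strain RE007, carrying one chromosomally integrated HIV-1 vpr copy, was seeded at OD 0.01 in PMG+AL medium with 23 nL pinned compound. After 24 h at 30 °C and 99% humidity, viability was read by BacTiter-Glo luminescence.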
# MARV entry inh – qHTS for inhibitors of binding or entry into cells for Marburg Virus. Marburg virus pseudotyped entry inhibition, cell reporter; control for the full effect not named in the record; about a third of the inactives were read at about 46 µM. Potency, µM (highest dose often 37.8 µM), without a hit: top-dose activity change, negative = inhibition, actives largely listed as inhibitors. actives 1.8% (n = 300,000); active = well fitted inhibition curve with a large enough effect; inconclusive = small, poorly fitted or top-dose-only effect, or effect the other way; inactive = flat fitted curve, though single readings scatter; tested in HEK293 cells; about a fifth of its hits are not listed in these tables; also: % is scaled to controls: 0 for no effect and ±100 for the full control effect; luciferase read-out
# SARS PLpro yeast – qHTS of Yeast-based Assay for SARS-CoV PLP; S. cerevisiae expressing SARS-CoV PLpro, growth rescue; control for the full effect not named in the record; Potency, µM (doses to about 32.9 µM), for the others: at the top dose activity, positive = growth rescue; actives 0.19% (n = 330,000); also: 0% is about no effect; nearly all actives have a fitted effect of over 55% in size; growth read by luminescence after 48 h
# NS1 function inh – qHTS Assay for Inhibitors of Influenza NS1 Protein Function. actives 0.4% (n = 270,000). S. cerevisiae slowed by influenza A NS1, growth recovery by OD600. Potency, µM (titrated, usually from 46.1 µM), inactives show at the top dose activity, positive = more growth; also: actives are rising curves; nearly all actives have a fitted effect of over 50% in size
#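 Read-out: OD600 growth recovery of NS1-expressing budding yeast. Cells grown overnight at 30C in -URA glucose medium, washed, resuspended and diluted 1:100 in 2% galactose assay medium, pH 6.0. Same strain lacking NS1 served as positive control.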
# LASV entry inh – qHTS for Inhibitors of binding or entry into cells for Lassa Virus; actives 1.2% (n = 300,000); Potency, µM (series often up to 37.9 µM), for the others: top-dose activity change, negative = inhibition, most hits filed as inhibitors; AID 540256, 2011; Lassa virus pseudotype entry inhibition, cell reporter; control for the full effect not named in the record; active means well fitted inhibition curve with a large enough effect; inconclusive means small, poorly fitted or top-dose-only effect, or effect the other way; inactive means flat fitted curve, though single readings scatter; tested in HEK293 cells; also: % is scaled to controls: 0 for no effect and ±100 for the full control effect; nearly all actives have a fitted effect of over 50% in size; luciferase read-out
# StopGo reporter – High Throughput Screening for Foot and Mouth Disease Virus Antivirals; human cells with a luciferase reporter of 2A StopGo recoding; control for the full effect not named in the record; Potency, µM (highest dose often 57.9 µM), inactives show at the highest dose signal change, negative = less light; actives 1.2% (n = 410,000); active = well fitted falling curve with a large enough effect; inconclusive = small, poorly fitted or top-dose-only effect; inactive = no such curve, though single readings can be large or run the other way; tested in HEK293T cells; also: % is scaled to controls: 0 for no effect and ±100 for the full control effect; nearly all actives have a fitted effect of over 45% in size; luciferase light after 4 h
# Cruzain inh Det – qHTS Assay for Promiscuous and Specific Inhibitors of Cruzain (with detergent). Cruzipain (Trypanosoma cruzi), P25779. purified cruzain, Z-FR-AMC fluorescence, 0.01% Triton. Potency, µM, without a hit: max response, negative = inhibition, hits mostly inhibitors. actives 0.43% (n = 200,000); active = well fitted curve in the direction sought with a large enough effect; inconclusive = small, poorly fitted or top-dose-only effect, or another doubt; inactive = no such curve, though single readings can be large; an effect the other way counts as inactive or inconclusive;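 also: plate controls were neutral wells for no effect and buffer without enzyme for full effect; nearly all actives have a fitted effect of over 40% in size; top concentration of the series not given in the record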
#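 Detergent-containing run (0.01% Triton X-100) in acetate buffer pH 5.5 with 5 mM DTT: enzyme at 1.5 nM final, 15 min compound preincubation at room temperature, then 2 uM Z-FR-AMC substrate. Activity taken as 60 s fluorescence increase at 360/450 nm.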
# Active calls of the source: *; ? = inconclusive; . = not tested or not shown; & = joins results of further samples; [ ] = dose if it differs, or a comment. Unless noted, calls follow the shape of the dose curve; as a rule, active means well fitted rising curve with a large enough effect; inconclusive means small, poorly fitted or top-dose-only effect; inactive means no such curve, though single readings can be large or run the other way. Potency is read from the fitted curve at half-maximal effect. Hits appear at their usual frequency; overall some 4.7% were active at least once.
compound | Cruzain noTriton | RE007 growth inh | MARV entry inh | SARS PLpro yeast | NS1 function inh | LASV entry inh | StopGo reporter | Cruzain inh Det
CN1CCN(/N=C/c2c[nH]c3ccccc23)CC1 | . | 3% | -1% | 1% | 5% | 12% | 0% | .
O=C(C1CCN(C2CC(=O)N(c3cccc(Cl)c3)C2=O)CC1)N1CCCC1 (stereo unspecified) | 9% | 13µM* | 15%[46.1 µM] | -11% | -167% | 14% | -15% | 2.4%
CCc1ccccc1NNC(=O)CCc1ccccc1 | . | 7% | ? | 1% | -5% | -13% | -3% | .
CCc1nc(Nc2cccc(O)c2)c2oc3ccccc3c2n1 | . | 0% | . | -1% | -2% | . | 22µM* | .
Cc1cc(F)c(F)c(C(=O)N2CCOCC2)c1Cl | -7% | 4% | 11%[46.1 µM] | 12% | 0% | 13% | 8% | -0.5%
COc1ccc(CCNC(=O)CC(NC(=O)c2ccccc2Cl)c2ccccc2)cc1 (stereo unspecified) | -30% | -16% | 2% | -7% | 11% | -15% | -19% | 1.3%
CCCCOc1ccc(C(=O)Oc2cccnc2)cc1 | . | 0% | . | 0% | -6% | . | -4% | .
CCOC(=O)COc1nc(-c2ccccc2)cc(-c2ccco2)c1C#N | . | 8% | 1% | -1% | -7% | -5% | -30% | .
O=S(=O)(c1ccc(NC(=S)N2CCN(c3ccccc3F)CC2)cc1)N1CCOCC1 | . | -10% | ? | 1% | . | -30% | ? | .
Cc1ccc(Sc2c(C)nn(C(=O)c3cccc(S(=O)(=O)N4CCOCC4)c3)c2C)cc1 | 11% | 22% | 3% | 5% | -7% | ? | -25% | 6.6%
Cc1csc2nc(O)c(C(=O)NCCN3CCOCC3)c(=O)n12 | . | -28% | 17%[46.1 µM] | -1% | . | 0% | -4% | .
O=C(COC(=O)c1cc(-c2cccs2)nc2ccccc12)c1ccc(Br)cc1 | 18% | . | 5%[46.1 µM] | . | . | 29%[46.1 µM] | 31%[activator] | 0.6%
Cc1c(NC(=O)Cc2ccc(F)cc2)cccc1-c1nc2cccnc2s1 | -19% | . | -1%[46.1 µM] | . | . | -10%[46.1 µM] | -21% | -7.0%
CCC(=O)NCCc1nc2ccccc2n1Cc1ccc(C)cc1 | -7% | 17% | ? | 1% | -2% | 15% | -17% | -8.7%
COc1ccccc1N(CC(=O)NCCSCc1cccc(C)c1)S(=O)(=O)c1ccccc1 | . | 3% | ? | -1% | 24% | ? | ? | .
O=C(C1CC1)N1CCc2cc(Br)cc(S(=O)(=O)NCCCN3CCCCC3)c21 | . | 1% | 0%[46.1 µM] | . | 14% | 10% | 17% | .
Cc1ccccc1C(=O)NC1CCN(C(=O)Nc2ccc(F)cc2)CC1 | . | 3% | 2%[46.1 µM] | 2% | -6% | 13%[46.1 µM] | -14% | .
c1ccc2occc2c1 | -7% | 9% | . | 4% | . | . | -1% | 6.9%
CNC(=S)NNc1nc(C)cc(C)n1 | . | -10% | 26%[46.1 µM] | 1% | . | 1%[46.1 µM] | -11% | .
CN(C)S(=O)(=O)c1cccc(NC(=O)COC(=O)/C=C/c2ccc(Br)o2)c1 | . | 5% | . | 0% | 0% | . | -11% | .
Nc1nccc(-c2cccs2)n1 | . | 23% | 11%[46.1 µM] | 0% | . | -10% | 3% | .
O=C(NC1CC2CCCC(C1)N2Cc1ccccc1)c1ccc([N+](=O)[O-])cc1 (stereo unspecified) | . | -6% | . | 1% | 12% | . | -28% | .
Cc1cccc(NC(=O)COc2ccc(Br)cc2C)n1 | 10% | -9% | -14% | -11% | -13% | ? | -5% | -3.3%
O=C(NC12CC3CC(CC(C3)C1)C2)c1ccc(=O)oc1 | -7% | 18% | -5% | 2% | ? | 9% | -28% | 3.3%
O=c1c2cc(Cl)cc(Cl)c2nc(CN2CCOCC2)n1-c1ccccc1F | -1% | -7% | 13% | . | -15% | 9% | ? | -8.3%
O=C(CC1C(=O)NCCN1Cc1c(F)cccc1Cl)NCCCOc1cccnc1 (stereo unspecified) | . | -5% | . | 0% | -8% | . | -2% | .
O=S(=O)(Nc1ccc(-c2ccccc2)cc1)c1ccccc1 | . | 6% | -2% | . | . | -3% | 53%[activator] | .
CC(=O)c1ccc(OCCCC(=O)NCCc2ccc(C(F)(F)F)cc2)cc1 | . | 15% | 0%[46.1 µM] | 18% | 14% | -2%[46.1 µM] | -11% | .
COc1cc(/C=C2\C(=O)ON=C2c2ccccc2)cc(OC)c1OC | -6% | 4% | -14% | 1% | 19% | -2% | 25µM* | -1.4%
O=C(CCl)N1CCN(S(=O)(=O)c2ccc3ccccc3c2)CC1 | . | 2% | ? | 8% | -2% | ? | 25µM* | .
Cc1cccn2c(=O)c3cc(C(=O)N(C)C)n(C)c3nc12 | -12% | -20% | ? | 6% | -4% | 9% | 16% | -2.4%
O=C(COc1ccccc1)Nc1ccncc1Cl | . | -25% | . | 6% | -8% | . | 31%[activator] | .
COc1ccc(-c2cc(C(=O)NCc3ccc(F)cc3)c3c(-c4ccc(F)cc4)[nH]nc3n2)cc1OC | ? | . | . | . | . | ? | -24% | -0.4%
C/C(=N\NC(=O)CN(c1ccccc1)S(=O)(=O)c1ccccc1[N+](=O)[O-])C(C)(C)C | 1% | 24% | ? | -8% | 16% | 8% | 1% | -4.7%
COc1cccc(OCC(=O)Nc2ccccc2NC(C)=O)c1 | -9% | 38% | -5% | 4% | 0% | 22% | -18% | 0.2%
O=C(Nc1cccc(-c2cn3ccccc3n2)c1)c1cc2ccccc2oc1=O | ? | -6% | -12% | -5% | 12% | 9% | 0% | 3.5µM*
COc1ccc(CNCc2ccncc2)c(OC)c1 | . | -14% | 14%[46.1 µM] | -1% | 26% | 17%[46.1 µM] | 5% | .
CCOc1ccc(CCNC(=O)CCc2cn(Cc3ccc(F)cc3)c3ccccc23)cc1 | 20% | . | . | . | . | -8%[46.1 µM] | -15% | -4.1%
COc1ccc(OC)c(S(=O)(=O)N2CCC(c3ccncc3)CC2)c1 | 2% | . | . | . | . | 9%[46.1 µM] | 0% | 2.9%
Cc1cccc(OCC(=O)N/N=C\c2cn(C)c3ccccc23)c1 | . | -9% | ? | -1% | -2% | 1% | 4% | .
CCCCn1c(O)c(C=Nc2c(C)n(C)n(-c3ccccc3)c2=O)c(=O)[nH]c1=O | -3% | -5% | ? | 1% | 0% | 19% | -4% | -3.4%
CCOC(=O)N1CCN(S(=O)(=O)c2ccc(F)cc2)CC1 | 3% | 10% | -6% | -6% | -5% | 18% | . | 3.9%
O=C(CN1C(=O)S/C(=C\c2cccs2)C1=O)Nc1ccc(O)c(C(=O)O)c1 | . | 10% | . | 8% | 19% | . | -8% | .
CCCCN(C)C(=O)C1CCC(=O)N(c2cc(OC)c(OC)c(OC)c2)C1c1ccc(OC)cc1 (stereo unspecified) | ? | -8% | 21%&21% | 3% | 0% | 7% | -9% | 0.2%
CCOC(=O)c1c(C)sc(-c2c(-c3ccccc3)[nH]c3[nH]c(=O)[nH]c(=O)c23)c1O | 1% | . | 15%[46.1 µM] | . | . | ? | ? | 2.0%
COC(=O)c1ccc(N=NNc2cccc(Br)c2)cc1 | ? | -7% | 3% | -10% | 3% | ? | 46%[activator] | -1.8%
CC(=O)Nc1ccc(NC(=O)C(C)OC(=O)c2ccc(S(=O)(=O)N3CCCCCC3)cc2)cc1 (stereo unspecified) | . | 5% | ? | -1% | . | ? | 2% | .
COc1ccc(S(=O)(=O)NN(C)C(=O)c2nn(-c3ccccc3)ccc2=O)cc1 | . | 10% | 16%[46.1 µM] | 0% | 6% | 9% | 5% | .
CC1C(=O)N2CCCc3cc(NC(=O)C(=O)NCCCc4ccccc4)cc1c32 (stereo unspecified) | . | 7% | ? | 4% | . | 12% | -14% | .
O=C(O)CSc1ccn(Cc2ccccc2)c1 | 10% | 8% | . | . | -8% | . | -23% | -0.6%
CC1CCN(S(=O)(=O)Cc2ccccc2Cl)CC1 | -1% | -9% | 14% | 1% | 7% | ? | 3% | 2.9%

# Entries listed so far that have an aryl methoxy group (nine):
compound | Cruzain noTriton | RE007 growth inh | MARV entry inh | SARS PLpro yeast | NS1 function inh | LASV entry inh | StopGo reporter | Cruzain inh Det
COc1ccc(CCNC(=O)CC(NC(=O)c2ccccc2Cl)c2ccccc2)cc1 (stereo unspecified) | -30% | -16% | 2% | -7% | 11% | -15% | -19% | 1.3%
COc1ccccc1N(CC(=O)NCCSCc1cccc(C)c1)S(=O)(=O)c1ccccc1 | . | 3% | ? | -1% | 24% | ? | ? | .
COc1cc(/C=C2\C(=O)ON=C2c2ccccc2)cc(OC)c1OC | -6% | 4% | -14% | 1% | 19% | -2% | 25µM* | -1.4%
COc1ccc(-c2cc(C(=O)NCc3ccc(F)cc3)c3c(-c4ccc(F)cc4)[nH]nc3n2)cc1OC | ? | . | . | . | . | ? | -24% | -0.4%
COc1cccc(OCC(=O)Nc2ccccc2NC(C)=O)c1 | -9% | 38% | -5% | 4% | 0% | 22% | -18% | 0.2%
COc1ccc(CNCc2ccncc2)c(OC)c1 | . | -14% | 14%[46.1 µM] | -1% | 26% | 17%[46.1 µM] | 5% | .
COc1ccc(OC)c(S(=O)(=O)N2CCC(c3ccncc3)CC2)c1 | 2% | . | . | . | . | 9%[46.1 µM] | 0% | 2.9%
CCCCN(C)C(=O)C1CCC(=O)N(c2cc(OC)c(OC)c(OC)c2)C1c1ccc(OC)cc1 (stereo unspecified) | ? | -8% | 21%&21% | 3% | 0% | 7% | -9% | 0.2%
COc1ccc(S(=O)(=O)NN(C)C(=O)c2nn(-c3ccccc3)ccc2=O)cc1 | . | 10% | 16%[46.1 µM] | 0% | 6% | 9% | 5% | .
